# Screening results (PubChem BioAssay)
# A1 apoptosis 2 – A1 inhibition read as caspase activation. caspase activation, % (concentration not given with the values). MEF A1-2A-BIM cells, caspase-Glo luminescence, 3 h; percent of clofoctol response, DMSO zero. 24,000 tested, under 10 active; in the data active = caspase activation above about 5.9%;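 also: wells of about 30 µL received 50 nL stock; the first replicate is given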
#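 Test system – A1-2A-BIM-expressing MEF cells · Input – 2500 cells/well · Medium – RPMI-1640 growth medium with 10% FBS · Compound dosing – 50 nL pinned compound · Timing – 3 h compound exposure at 37 °C · Technique – Caspase-Glo luminescence (DEVD substrate) · Evaluation – Caspase-3/7 activity from luminescence increase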
# Starred values were filed as active, the others as inactive. Not all compounds are listed (hit frequency here may not be typical).
Structure	A1 apoptosis 2
COc1ccc(C#Cc2ccc3c(c2)[C@]2(C(=O)N3)[C@H](C(=O)N3CCN(c4ncccn4)CC3)[C@H]3C(=O)O[C@H](c4ccccc4)[C@H](c4ccccc4)N3[C@@H]2c2ccc(OCCO)cc2)cc1	0.1
COC(=O)CCCCCCC(=O)N/N=C/c1ccc([N+](=O)[O-])s1	-0.5
C[C@H]1CCCCO[C@H](CN(C)Cc2ccc3c(c2)OCO3)[C@@H](C)CN([C@@H](C)CO)C(=O)c2cc(NS(=O)(=O)c3cccs3)ccc2O1	-0.9
C[C@@H]1CN([C@@H](C)CO)C(=O)Cc2cc(NC(=O)Nc3ccc(F)cc3)ccc2O[C@H]1CN(C)Cc1ccc(Cl)c(Cl)c1	1.3
C[C@@H]1CN([C@@H](C)CO)C(=O)Cc2cc(NC(=O)C3CCCCC3)ccc2O[C@H]1CN(C)S(=O)(=O)c1cccs1	-0.2
C[C@H](CO)N1C[C@H](C)[C@H](CN(C)S(=O)(=O)c2cn(C)cn2)Oc2c(NS(=O)(=O)c3cn(C)cn3)cccc2C1=O	0.0
C[C@H]1CN([C@@H](C)CO)C(=O)Cc2cc(NC(=O)Cc3cn(C)c4ccccc34)ccc2O[C@@H]1CN(C)C	0.1
C[C@H]1CN([C@@H](C)CO)C(=O)c2cccc(NC(=O)CCCCCC(=O)Nc3ccccc3N)c2O[C@@H]1CN(C)Cc1ccncc1	-0.1
C[C@@H]1CN([C@H](C)CO)C(=O)c2cccc(NC(=O)C3CCOCC3)c2O[C@@H]1CN(C)C(=O)Nc1ccc2c(c1)OCO2	-1.2
C[C@H]1CCCCO[C@@H](CN(C)Cc2ccc3c(c2)OCO3)[C@@H](C)CN([C@@H](C)CO)C(=O)c2cc(NC(=O)c3ccccc3)ccc2O1	-0.3
C[C@@H]1CN([C@H](C)CO)C(=O)c2cccc(NC(=O)Nc3cccc4ccccc34)c2O[C@@H]1CN(C)C(=O)Nc1ccc(F)cc1	-0.6
C[C@@H]1CN([C@H](C)CO)C(=O)CCCn2cc(nn2)CO[C@H]1CN(C)Cc1cccc2c1OCCCO2	-0.3
C[C@H]1CN([C@@H](C)CO)C(=O)c2cccc(NC(=O)CCCCCC(=O)Nc3ccccc3N)c2O[C@H]1CN(C)Cc1ccc(-c2ccccc2)cc1	1.2
C[C@@H]1CN([C@@H](C)CO)C(=O)c2cc(NS(=O)(=O)c3ccccc3)ccc2O[C@@H](C)CCCCO[C@H]1CN(C)C(=O)Nc1ccc(C(F)(F)F)cc1	0.8
Cc1noc(C)c1NC(=O)N(C)C[C@@H]1Oc2c(NC(=O)Nc3ccc(F)cc3)cccc2C(=O)N([C@H](C)CO)C[C@H]1C	0.7
C[C@H](CO)N1C[C@H](C)[C@H](CN(C)S(=O)(=O)c2ccccc2)Oc2ccc(NC(=O)C3CCCCC3)cc2CC1=O	-0.7
COc1ccc(S(=O)(=O)Nc2ccc3c(c2)CC(=O)N([C@H](C)CO)C[C@H](C)[C@H](CN(C)C(=O)NC(C)C)O3)cc1	-0.6
C[C@H](CO)N1C[C@H](C)[C@H](CN(C)C(=O)c2ccncc2)OCCCC[C@H](C)Oc2ccc(NC(=O)NC3CCCCC3)cc2C1=O	-1.0
COc1ccc(NC(=O)N(C)C[C@@H]2OCCCC[C@H](C)Oc3ccc(NC(=O)NC(C)C)cc3C(=O)N([C@@H](C)CO)C[C@@H]2C)cc1	0.7
Cc1ccc(S(=O)(=O)Nc2ccc3c(c2)C(=O)N([C@H](C)CO)C[C@@H](C)[C@H](CN(C)Cc2ccc(Cl)c(Cl)c2)OCCCC[C@@H](C)O3)cc1	-1.3
CNC[C@H]1Oc2ccc(NC(=O)C3CC3)cc2CC(=O)N([C@@H](C)CO)C[C@@H]1C	-0.6
COc1ccc(S(=O)(=O)Nc2ccc3c(c2)C(=O)N([C@H](C)CO)C[C@@H](C)[C@H](CN(C)S(=O)(=O)c2cn(C)cn2)O3)cc1	0.3
C[C@@H]1CN([C@H](C)CO)C(=O)c2cc(NC(=O)Cn3cnnn3)ccc2O[C@@H]1CN(C)C(=O)NC1CCCCC1	-1.5
CC1(C)[C@H]2CC=C(/C=N\NC(=O)CCCCCCC(=O)Nc3ccccc3O)[C@@H]1C2	1.1
Cc1ccc(S(=O)(=O)N(C)C[C@@H]2Oc3ccc(NC(=O)CCCCCC(=O)Nc4ccccc4N)cc3CC(=O)N([C@H](C)CO)C[C@@H]2C)cc1	-0.4
COC(=O)c1ccc(/C=N/NC(=O)c2ccc(C(=O)NO)cc2)cc1	-0.5
CC(C)NC(=O)Nc1ccc2c(c1)CC(=O)N([C@@H](C)CO)C[C@H](C)[C@H](CN(C)C(=O)Nc1ccccc1)O2	0.6
C[C@@H]1CN([C@H](C)CO)C(=O)Cc2cc(NC(=O)Cc3cn(C)c4ccccc34)ccc2O[C@@H]1CN(C)CC1CC1	1.1
C[C@H](CO)N1C[C@H](C)[C@H](CN(C)S(=O)(=O)c2ccc(Cl)cc2)Oc2ccc(NC(=O)Cc3cn(C)c4ccccc34)cc2C1=O	-0.7
C[C@@H]1CN([C@@H](C)CO)C(=O)c2cccc(NC(=O)c3cnccn3)c2O[C@H]1CN(C)S(=O)(=O)c1ccc(F)cc1	0.1
O=C(NO)c1cccc(C(=O)N/N=C/c2ccc(OCc3ccccc3)cc2O)c1	1.1
C[C@@H]1CN([C@@H](C)CO)C(=O)c2cccc(NC(=O)c3cnccn3)c2O[C@@H]1CN(C)C(=O)NC1CCCCC1	-1.0
C[C@H](CO)N1C[C@H](C)[C@@H](CN(C)Cc2ccc(-c3ccccc3)cc2)Oc2c(NC(=O)C3CCOCC3)cccc2C1=O	1.6
C[C@H]1CN([C@@H](C)CO)C(=O)Cc2cc(NC(=O)Cc3ccccc3)ccc2O[C@H]1CN(C)S(=O)(=O)c1ccc(F)cc1	1.0
O=C(NO)c1cccc(C(=O)N/N=C/c2cccnc2Cl)c1	-2.1
C[C@@H]1CCCCO[C@H](CN(C)C(=O)Nc2ccc3c(c2)OCO3)[C@@H](C)CN([C@@H](C)CO)C(=O)c2cc(NC(=O)c3ccncc3)ccc2O1	-0.2
C[C@H](CO)N1C[C@H](C)[C@@H](CN(C)Cc2ccc(C(=O)Nc3ccccc3N)cc2)Oc2c(NC(=O)c3nc4ccccc4s3)cccc2C1=O	0.0
C[C@@H]1CN([C@@H](C)CO)C(=O)c2cccc(NS(=O)(=O)c3ccc(F)cc3)c2O[C@H]1CN(C)CC1CC1	0.8
C[C@@H]1CN([C@@H](C)CO)C(=O)c2cc(N(C)C)ccc2O[C@@H](C)CCCCO[C@H]1CN(C)C(=O)c1ccncc1	0.5
CNC[C@@H]1Oc2ccc(NC(=O)Nc3ccc4c(c3)OCO4)cc2CC(=O)N([C@H](C)CO)C[C@H]1C	-0.2
C[C@@H]1CN([C@H](C)CO)C(=O)c2cccc(NC(=O)c3ccncc3)c2O[C@@H]1CN(C)C(=O)Nc1cccc2ccccc12	0.8
CC(C)NC(=O)Nc1ccc2c(c1)CC(=O)N([C@H](C)CO)C[C@@H](C)[C@H](CN(C)Cc1ccncc1)O2	0.2
C[C@H]1CCCCO[C@H](CN(C)S(=O)(=O)c2cn(C)cn2)[C@@H](C)CN([C@@H](C)CO)C(=O)c2cc(NC(=O)CCC(F)(F)F)ccc2O1	-0.4
C[C@@H]1CN([C@@H](C)CO)C(=O)Cc2cc(NC(=O)CCC(F)(F)F)ccc2O[C@H]1CN(C)S(=O)(=O)c1cn(C)cn1	0.4
C[C@@H]1CCCCO[C@H](CN(C)C)[C@@H](C)CN([C@H](C)CO)C(=O)c2cc(NC(=O)c3ccccc3)ccc2O1	-0.7
C[C@@H]1CN([C@@H](C)CO)C(=O)Cc2cc(NC(=O)CCN3CCOCC3)ccc2O[C@H]1CN(C)Cc1ccc2c(c1)OCO2	-0.7
Cc1noc(C)c1NC(=O)Nc1ccc2c(c1)CC(=O)N([C@@H](C)CO)C[C@@H](C)[C@@H](CN(C)Cc1ccncc1)O2	-0.3
C[C@@H]1CCCCO[C@H](CN(C)C(=O)Cc2ccccc2)[C@H](C)CN([C@@H](C)CO)C(=O)c2cc(NC(=O)Cc3ccccc3)ccc2O1	-0.8

# In another format: 4 of the compounds above.
structure: CC(C)NC(=O)Nc1ccc2c(c1)CC(=O)N([C@H](C)CO)C[C@@H](C)[C@H](CN(C)Cc1ccncc1)O2
  A1 apoptosis 2: 0.2
structure: C[C@H]1CCCCO[C@H](CN(C)S(=O)(=O)c2cn(C)cn2)[C@@H](C)CN([C@@H](C)CO)C(=O)c2cc(NC(=O)CCC(F)(F)F)ccc2O1
  A1 apoptosis 2: -0.4
structure: C[C@@H]1CN([C@@H](C)CO)C(=O)Cc2cc(NC(=O)CCC(F)(F)F)ccc2O[C@H]1CN(C)S(=O)(=O)c1cn(C)cn1
  A1 apoptosis 2: 0.4
structure: C[C@@H]1CCCCO[C@H](CN(C)C)[C@@H](C)CN([C@H](C)CO)C(=O)c2cc(NC(=O)c3ccccc3)ccc2O1
  A1 apoptosis 2: -0.7

# (list continues)
Structure	A1 apoptosis 2
COc1ccc(NC(=O)Nc2ccc3c(c2)C(=O)N([C@H](C)CO)C[C@@H](C)[C@@H](CN(C)S(=O)(=O)c2ccc(OC)cc2)OCCCC[C@H](C)O3)cc1	0.4
C[C@@H]1CCCCO[C@@H](CN(C)C(=O)NC2CCCCC2)[C@@H](C)CN([C@H](C)CO)C(=O)c2cc(NS(=O)(=O)c3cccs3)ccc2O1	0.1
C[C@@H]1CCCCO[C@@H](CN(C)C(=O)c2ccccc2)[C@H](C)CN([C@H](C)CO)C(=O)c2cc(NS(=O)(=O)c3cccs3)ccc2O1	0.1
C[C@H]1CN([C@@H](C)CO)C(=O)Cc2cc(NC(=O)Nc3ccc(F)cc3)ccc2O[C@@H]1CN(C)C(=O)Nc1ccc(F)cc1	-0.2
COc1ccc(S(=O)(=O)Nc2ccc3c(c2)CC(=O)N([C@@H](C)CO)C[C@@H](C)[C@H](CN(C)Cc2ccc(C(=O)O)cc2)O3)cc1	-1.2
C[C@H]1CN([C@@H](C)CO)C(=O)c2cc(NC(=O)Nc3ccc(F)cc3)ccc2O[C@H]1CN(C)S(=O)(=O)c1ccc(Cl)cc1	0.1
C[C@H]1CN([C@@H](C)CO)C(=O)Cc2cc(NC(=O)Cc3ccccc3)ccc2O[C@H]1CN(C)Cc1ccncc1	0.2
C[C@@H]1CCCCO[C@H](CN(C)Cc2ccc(Cl)c(Cl)c2)[C@@H](C)CN([C@@H](C)CO)C(=O)c2cc(N(C)C)ccc2O1	-0.5
COc1ccc(NC(=O)Nc2ccc3c(c2)C(=O)N([C@H](C)CO)C[C@H](C)[C@H](CN(C)C)OCCCC[C@H](C)O3)cc1	2.0
Cc1ccc(S(=O)(=O)N(C)C[C@@H]2OCCCC[C@H](C)Oc3ccc(NS(C)(=O)=O)cc3C(=O)N([C@H](C)CO)C[C@@H]2C)cc1	-0.2
C[C@@H]1CCCCO[C@H](CN(C)Cc2ccccc2)[C@H](C)CN([C@H](C)CO)C(=O)c2cc(NS(=O)(=O)c3ccc(Cl)cc3)ccc2O1	-0.1
COc1ccc(NC(=O)N(C)C[C@H]2OCCCC[C@H](C)Oc3ccc(NC(=O)NC4CCCCC4)cc3C(=O)N([C@H](C)CO)C[C@@H]2C)cc1	-0.6
C[C@H]1CCCCO[C@H](CN(C)C(=O)Nc2ccccc2)[C@@H](C)CN([C@@H](C)CO)C(=O)c2cc(NC(=O)Nc3ccc(C(F)(F)F)cc3)ccc2O1	1.0
Cc1noc(C)c1NC(=O)N(C)C[C@@H]1OCCCC[C@@H](C)Oc2ccc(NC(=O)CCC(F)(F)F)cc2C(=O)N([C@H](C)CO)C[C@@H]1C	0.0
C[C@H]1CN([C@@H](C)CO)C(=O)c2cccc(NC(=O)CCCCCC(=O)Nc3ccccc3N)c2O[C@@H]1CN(C)Cc1ccc(Oc2ccccc2)cc1	-0.6
CC(C)NC(=O)Nc1ccc2c(c1)CC(=O)N([C@H](C)CO)C[C@@H](C)[C@H](CN(C)C(=O)Nc1ccc3c(c1)OCO3)O2	-1.1
COc1ccc(C#Cc2ccc3c(c2)[C@]2(C(=O)N3)[C@H](C(=O)O)[C@H]3C(=O)O[C@H](c4ccccc4)[C@H](c4ccccc4)N3[C@@H]2c2ccccc2OCCO)cc1	-1.0
C[C@H](CO)N1C[C@H](C)[C@H](CN(C)C(=O)Nc2ccc(F)cc2)OCCCC[C@H](C)Oc2ccc(NC(=O)c3ccncc3)cc2C1=O	1.6
C[C@H](CO)N1C[C@H](C)[C@H](CN(C)Cc2ccc(Cl)c(Cl)c2)Oc2ccc(NC(=O)Nc3ccc(C(F)(F)F)cc3)cc2C1=O	-0.8
C[C@H]1CN([C@@H](C)CO)C(=O)c2cccc(NC(=O)Nc3ccccc3)c2O[C@@H]1CN(C)C(=O)NC1CCCCC1	-0.3
C[C@H]1CN([C@@H](C)CO)C(=O)c2cccc(NS(C)(=O)=O)c2O[C@H]1CN(C)Cc1ccc(C(F)(F)F)cc1	-0.2
C[C@@H]1CN([C@@H](C)CO)C(=O)c2cc(NS(=O)(=O)c3ccccc3)ccc2O[C@@H](C)CCCCO[C@@H]1CN(C)C(=O)Nc1ccc(F)cc1	1.4
C[C@@H]1CN([C@H](C)CO)C(=O)c2cc(NC(=O)Nc3ccccc3)ccc2O[C@H]1CN(C)S(C)(=O)=O	1.2
